High-throughput results (PubChem)
2A StopGo: High Throughput Screening for Foot and Mouth Disease Virus Antivirals. AID 1159524, 2015. human cells with a luciferase reporter of 2A StopGo recoding; control for the full effect not named in the record. hit rate 1.2% among 410,000. Potency, µM (top dose mostly 57.9 µM), for inactives: at the top dose signal change, negative = less light; active = well fitted falling curve with a large enough effect; inconclusive = small, poorly fitted or top-dose-only effect; inactive = no such curve, though single readings can be large or run the other way; tested in HEK293T cells; further: on the % scale 0 is the no-effect control and ±100 the full control effect; nearly all actives have a fitted effect of over 45% in size; luciferase light after 4 h
LASV entry inh: qHTS for Inhibitors of binding or entry into cells for Lassa Virus. Lassa virus pseudotype entry inhibition, cell reporter; control for the full effect not named in the record. Potency, µM (series often up to 37.9 µM), inactives show top-dose activity change, negative = inhibition, hits mostly inhibitors. hit rate 1.2% among 300,000; active means well fitted inhibition curve with a large enough effect; inconclusive means small, poorly fitted or top-dose-only effect, or effect the other way; inactive means flat fitted curve, though single readings scatter; tested in HEK293 cells; further: on the % scale 0 is the no-effect control and ±100 the full control effect; nearly all actives have a fitted effect of over 50% in size; luciferase read-out
RE007 growth inh: qHTS Assay for Inhibitors of the HIV-1 protein Vpr | S. pombe RE007 Vpr strain, BacTiter-Glo ATP luminescence, 24 h; control for the full effect not named in the record | Potency, µM (doses to about 92.2 µM), inactives show top-dose activity change, negative = less growth | hit rate 0.21% among 360,000 | AID 651644, 2012; active = well fitted falling curve with a large enough effect; inconclusive = small, poorly fitted or top-dose-only effect; inactive = no such curve, though single readings can be large or run the other way;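 further: on the % scale 0 is the no-effect control and ±100 the full control effect; nearly all actives have a fitted effect of over 50% in size; the assay follows cell death caused by Vpr and the record does not say whether a fall means rescue or toxicity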
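Fission yeast strain RE007, carrying one chromosomally integrated HIV-1 vpr copy, was seeded at OD 0.01 in PMG+AL medium with 23 nL pinned compound. After 24 h at 30 °C and 99% humidity, viability was read by BacTiter-Glo luminescence.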
Marburg entry inh: qHTS for inhibitors of binding or entry into cells for Marburg Virus; Marburg virus pseudotyped entry inhibition, cell reporter; control for the full effect not named in the record; about a third of the inactives were read at about 46 µM; Potency, µM (doses to about 37.8 µM), without a hit: at the top dose activity change, negative = inhibition, actives largely listed as inhibitors; hit rate 1.8% among 300,000; active = well fitted inhibition curve with a large enough effect; inconclusive = small, poorly fitted or top-dose-only effect, or effect the other way; inactive = flat fitted curve, though single readings scatter; tested in HEK293 cells; about a fifth of its hits are not listed in these tables; further: on the % scale 0 is the no-effect control and ±100 the full control effect; luciferase read-out
NS1 inh: qHTS Assay for Inhibitors of Influenza NS1 Protein Function. S. cerevisiae slowed by influenza A NS1, growth recovery by OD600. Potency, µM (top dose mostly 46.1 µM), without a hit: at the top dose activity, positive = more growth. hit rate 0.4% among 270,000; active means well fitted rising curve with a large enough effect; inconclusive means small, poorly fitted or top-dose-only effect; inactive means no such curve, though single readings can be large or run the other way; further: nearly all actives have a fitted effect of over 50% in size
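S. cerevisiae expressing influenza A NS1, grown in glucose, washed, then diluted 1:100 into pH 6.0 -URA galactose medium with 23 nl compound. Growth recovery read as OD600; NS1-free strain serves as control.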
Cruzain inh Det: qHTS Assay for Promiscuous and Specific Inhibitors of Cruzain (with detergent). Potency, µM, inactives show max response, negative = inhibition, usual class: inhibitors. AID 1478, 2009. hit rate 0.43% among 200,000. Cruzipain (Trypanosoma cruzi), P25779. purified cruzain, Z-FR-AMC fluorescence, 0.01% Triton;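 further: plate controls were neutral wells for no effect and buffer without enzyme for full effect; nearly all actives have a fitted effect of over 40% in size; top concentration of the series not given in the record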
Target sequence (P25779 123-467 limits assumed): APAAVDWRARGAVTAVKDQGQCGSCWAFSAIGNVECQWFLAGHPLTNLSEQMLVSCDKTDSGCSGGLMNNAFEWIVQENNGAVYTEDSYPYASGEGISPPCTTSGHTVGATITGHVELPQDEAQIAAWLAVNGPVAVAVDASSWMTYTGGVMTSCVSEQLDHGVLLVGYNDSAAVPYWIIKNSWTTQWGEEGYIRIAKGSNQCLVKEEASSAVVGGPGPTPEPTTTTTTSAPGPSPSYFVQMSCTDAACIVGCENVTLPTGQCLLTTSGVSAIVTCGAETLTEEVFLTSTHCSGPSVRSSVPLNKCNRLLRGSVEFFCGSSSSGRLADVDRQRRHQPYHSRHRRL
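Purified cruzain (1.5 nM final) was preincubated with compounds for 15 min at room temperature in 100 mM sodium acetate pH 5.5, 5 mM DTT, 0.01% Triton X-100. Reaction started with 2 uM Z-FR-AMC; AMC fluorescence change over 60 s gave activity.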
SARS PLP yeast: qHTS of Yeast-based Assay for SARS-CoV PLP. S. cerevisiae expressing SARS-CoV PLpro, growth rescue; control for the full effect not named in the record. AID 485353, 2010. hit rate 0.19% among 330,000. Potency, µM (top dose mostly 32.9 µM), inactives show top-dose activity, positive = growth rescue; active means well fitted rising curve with a large enough effect; inconclusive means small, poorly fitted or top-dose-only effect; inactive means no such curve, though single readings can be large or run the other way; further: 0% is about no effect; nearly all actives have a fitted effect of over 55% in size; growth read by luminescence after 48 h
Cruzain inh noDet: qHTS Assay for Promiscuous and Specific Inhibitors of Cruzain (without detergent); Cruzipain (Trypanosoma cruzi), P25779; purified cruzain, Z-FR-AMC fluorescence, no detergent; Potency, µM, for inactives: max response, negative = inhibition, most hits filed as inhibitors; hit rate 2.3% among 200,000;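 further: plate controls were enzyme without inhibitor for no effect and buffer without enzyme for full effect; nearly all actives have a fitted effect of over 40% in size; top concentration of the series not given in the record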
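Detergent-free condition (0.00005% Triton X-100) in acetate buffer pH 5.5 with DTT. 1.5 nM enzyme and compound were pre-mixed 15 min, then 2 uM Z-FR-AMC substrate added; reaction progress from fluorescence change between first and third reads (60 s).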
* marks the source's active call; other numbers are inactive results; ? = inconclusive; nt = not tested or not shown; & = joins results of further samples; [ ] = remark or other dose. Unless noted, the call rests on the fitted dose curve; in most records, active means well fitted curve in the direction sought with a large enough effect; inconclusive means small, poorly fitted or top-dose-only effect, or another doubt; inactive means no such curve, though single readings can be large; an effect the other way counts as inactive or inconclusive. Potency means the concentration at half of the fitted maximal effect. Hits appear at their usual frequency; 4.7% or so of the library scored in one or more.

SMILES	2A StopGo	LASV entry inh	RE007 growth inh	Marburg entry inh	NS1 inh	Cruzain inh Det	SARS PLP yeast	Cruzain inh noDet
CCOc1ccccc1N1CCN(CC(O)COc2ccc3c(C)cc(=O)oc3c2)CC1 (centres undefined)	nt	2%	-11%	-29%	-9%	-8.5%	3%	-15%
C/C(=N\N=C(c1ccccc1)c1ccccc1)c1ccco1	-8%	8%	9%	-14%[46.1 µM]	0%	nt	-8%	nt
COc1ccc(OC)c2[nH]c(=O)c(CCNS(=O)(=O)c3ccc(F)cc3)cc12	30%[activator]	-1%[46.1 µM]	-5%	-1%[46.1 µM]	9%	nt	2%	nt
O=C(CO/N=C1\CCCc2nonc21)Nc1ccc(Br)cc1	-13%	?	-9%	16%	-7%	-4.1%	-12%	-11%
COc1ccc(CN(C(=O)c2ccc(C)cc2)C2CCS(=O)(=O)C2)cc1 (centres undefined)	0%	nt	2%	nt	-4%	nt	-2%	nt
CC(NC(=O)CN(c1ccccc1F)S(C)(=O)=O)c1ccccc1 (centres undefined)	-5%	0%	-12%	-27%	0%	nt	6%	nt
O=C1NC2c3c(Cl)sc(Cl)c3C(=O)C2O1 (centres undefined)	?	3%	40%	?	nt	nt	nt	nt
N#Cc1c(NC(=S)NC(=O)C2CCCC2)sc2c1CCCCC2	-15%	1%	0%	?	12%	-0.9%	-41%	?
CCC(CC)NC(=O)Cc1ccccc1OC	-20%	4%	4%	1%	2%	-4.4%	17%	3%
Cc1ccc(NC(=O)CCn2cnc3ccccc3c2=O)cc1Cl	19%	-10%	-8%	-18%	8%	-2.2%	8%	-14%
COc1ccc(C(=O)NCC(c2ccco2)S(=O)(=O)c2ccccc2)cc1 (centres undefined)	6%	0%[46.1 µM]	nt	nt	nt	0.6%	nt	1%
Cc1ccccc1SC1CCN(C(=O)C2CCC(=O)N(C3CC3)C2)CC1 (centres undefined)	1%	nt	-1%	nt	-9%	nt	1%	nt
CC1CCN(CCCNC(=O)C2CCC(CNS(=O)(=O)c3ccccc3)CC2)CC1 (centres undefined)	37%	nt	-6%	nt	-13%	nt	0%	nt
CSc1ccccc1NC(=O)CO/N=C(\C)c1cc2ccccc2o1	-3%	?	3%	?	-19%	-4.3%	-2%	-1%
Cc1ccc(NC(=O)COC(=O)COc2cccc3c2OC(C)(C)C3)cc1C	2%	nt	-4%	nt	-33%	nt	-8%	nt
N/C(=N/O)c1cccn1Cc1ccccc1[N+](=O)[O-]	-9%	-3%[46.1 µM]	9%	-5%[46.1 µM]	5%	nt	0%	nt
Cc1c(NC(=O)c2ccc(Cl)c([N+](=O)[O-])c2)cccc1-n1cnnn1	-27%	?	7%	?	nt	nt	-8%	nt
CCCc1cc(C(=O)OCC(=O)N(CCC)c2c(N)n(Cc3ccccc3)c(=O)[nH]c2=O)sc1C	-2%	-29%	5%	?	nt	nt	-5%	nt
COc1ccccc1C(=O)NC(=O)COC(=O)CNC(=O)c1ccccc1	12%	25%	13%	0%	nt	nt	3%	nt
COc1ccc(CCN(C)Cc2nc(-c3cnccn3)no2)cc1OC	5.6µM*	nt	11%	nt	5%	nt	-1%	nt
CCOC(=O)c1cc2c(=O)n3cccc(C)c3nc2n(Cc2ccco2)c1=NC(=O)c1ccc(C)cc1	-9%	23%	-10%	-6%	nt	nt	nt	nt
CCC1CCCCN1Cc1ccc(CNS(=O)(=O)c2ccc3c(c2)oc(=O)n3C)o1 (centres undefined)	-9%	-2%	-9%	14%	7%	-0.1%	3%	5%
CCC(CC)C(=O)Nc1nnc(S(=O)(=O)Nc2ccc(OC)cc2)s1	-15%	nt	2%	nt	5%	nt	0%	nt
Cc1cc(=O)oc2c(C)c(OCC(=O)NCCCN3CCCC3=O)ccc12	9%	nt	-5%	nt	1%	nt	-5%	nt
CCOC(=O)C1CCN(S(=O)(=O)c2ccc3c(c2)N(C)C(=O)CC(=O)N3C)CC1	7%&0%	10%&-2%[46.1 µM]	2%	-6%&-6%[46.1 µM]	7%	0.0%	2%	-10%

(more compounds)
SMILES	2A StopGo	LASV entry inh	RE007 growth inh	Marburg entry inh	NS1 inh	Cruzain inh Det	SARS PLP yeast	Cruzain inh noDet
Cc1ccc(NC(=O)CCCN2C(=O)/C(=C/C=C/c3ccccc3)SC2=S)cc1	8%	1%	-1%	-1%	2%	-7.0%	2%	32µM*
COc1ccc(CC(=O)Nc2ccc(OC(C)=O)cc2C(=O)O)cc1	-13%	12%	5%	2%	2%	nt	3%	nt
Cc1nc2sc(C(c3ccccc3)N3CCN(c4ccccc4F)CC3)c(O)n2n1 (centres undefined)	7%	13%	-19%	-5%	-1%	-6.5%	2%	?
Cc1cc(NS(=O)(=O)c2ccc(NC(=O)/C=C/c3ccccc3)cc2)no1	7%	2%[46.1 µM]	11%	12%[46.1 µM]	12%	nt	-1%	nt
Cc1ccc(Cl)cc1N1CCN(C(=O)c2noc(C(C)C)c2[N+](=O)[O-])CC1	-28%	nt	-1%	nt	2%	nt	-6%	nt
CCn1c(=O)c2cc(C(=O)N3CCN(c4cccc(Cl)c4)CC3)sc2c2ccccc21	?	15%[46.1 µM]	nt	?	nt	2.6%	nt	3%
COC(=O)c1ccc(NC(=O)CC2C(=O)N(c3ccccc3)C(=O)N2Cc2cccs2)cc1 (centres undefined)	5%	-9%[46.1 µM]	nt	nt	nt	0.5%	nt	-7%
O=S(=O)(c1ccc(Cl)cc1)N1CCN=C1SCc1ccc(Cl)c(Cl)c1	-5%	-2%	5%	4%	-5%	-1.7%	-14%	-5%
COc1cccc2c1O/C(=N\O)C(C(=O)Nc1cccc(Br)c1)C2 (centres undefined)	-18%	-14%[46.1 µM]	-22%	5%[46.1 µM]	2%	nt	0%	nt
O=C1COc2cc(S(=O)(=O)CCC(=O)N3CCCCC3)c(Cl)cc2N1	-13%	nt	0%	nt	4%	nt	-1%	nt
Cc1nn2c(NCCOCCO)c3c(nc2c1-c1ccccc1)CCCC3	-28%	4%	-2%	?	-13%	4.6%	7%	-4%
O=C(Nc1ccccc1F)c1cc2nc(C(F)F)cc(C(F)F)n2n1	58%[activator]	-1%	22%	?	-6%	-0.7%	6%	-16%
CCCn1c(N2CCN(C)CC2)nc2c1c(=O)[nH]c(=O)n2C	5%	5%	2%	-17%	6%	-1.8%	11%	-2%
COc1ccc(N2CCN(C(=O)CCSCc3ccccc3F)CC2)cc1	-9%	2%	6%	19%[46.1 µM]	nt	nt	-2%	nt
CCc1nn(CC(=O)N2CCC(C)CC2)c(=O)c2cccn12	12%	nt	0%	nt	4%	nt	-15%	nt
COC(=O)c1[nH]c2ccccc2c1NC(=O)CN1CCCc2ccccc21	2%	-2%	30%	-1%	17%	-18%	-11%	-27%
Cc1cc(F)ccc1NC(=O)C1CSC2(C)CCC(=O)N12 (centres undefined)	-16%	-10%[46.1 µM]	0%	?	nt	nt	2%	nt
Oc1[nH]c2ccccc2c1N=NC(=S)NCCc1ccccc1	-24%	?	nt	?	1%	-11%	-30%	1%
Cc1nc(N)c(Br)c(C)c1Br	0%	10%	18%	4%[46.1 µM]	nt	nt	0%	nt
Nc1nnc(SCc2ccccc2F)n1-c1ccccc1	-13%	18%	24%	-1%	-2%	-2.5%	8%	4%
CC(CC(=O)c1cccs1)CC(=O)c1cccs1	nt	25%	-19%	?	-6%	2.5%	-14%	-6%
Cc1nc(NCCc2ccc(O)cc2)c2nnn(Cc3ccccc3)c2n1	-23%	-23%[46.1 µM]	2%	?	2%	nt	-10%	nt
CN1CC(=O)NC1=NC(=O)c1ccc(Cl)c(S(=O)(=O)N2CCCCCC2)c1	-25%	0%	-10%	-24%	?	-1.0%	8%	?
Cc1coc2c1c(C)cc1oc(=O)c(CC(=O)NCCC(=O)O)c(C)c12	-16%	nt	-1%	nt	-1%	nt	0%	nt
CC(CC(=O)N1CCN(c2ccc(C(F)(F)F)cn2)CC1)n1ccnc1 (centres undefined)	-12%	-7%	4%	?	nt	nt	-4%	nt

Remaining list, next part
SMILES	2A StopGo	LASV entry inh	RE007 growth inh	Marburg entry inh	NS1 inh	Cruzain inh Det	SARS PLP yeast	Cruzain inh noDet
Cc1ccc(-n2nnc3c(=O)n(CC(=O)N4CCOCC4)cnc32)cc1	0%	nt	-8%	nt	-14%	2.5%	9%	1%
COc1ccc(-n2nc3c(c2NC(=O)C(=O)NCc2ccccc2)CSC3)cc1	-21%	-23%[46.1 µM]	nt	nt	nt	-0.7%	nt	7.9µM*
Cc1ccc(S(=O)Cc2ccc(C(=O)N3CCN(C(=O)c4ccco4)CC3)o2)cc1 (centres undefined)	-1%	nt	-6%	nt	-7%	nt	?	nt
CCOC(=O)C1=C(c2ccccc2)OC(N)=C(C#N)C1c1ccco1 (centres undefined)	6%	-10%	4%	-2%	12%	-11%	6%	4%
Cn1c(=O)c2c(nc(SCc3ccccn3)n2C)n(C)c1=O	nt	nt	nt	0%	-3%	0.2%	0%	7%
O=C(COC(=O)CCN1C(=O)C2CC=CCC2C1=O)NCCc1ccccc1 (centres undefined)	-27%	11%	6%	-15%	-5%	nt	-4%	nt
COC(=O)N/N=C/c1cn(CC(C)COc2ccccc2)c2ccccc12 (centres undefined)	?	?	13%	?	19%	-8.3%	-32%	-10%
CC(C)CNS(=O)(=O)c1ccc(CCC(=O)N2CCCC2)cc1	26%	18%[46.1 µM]	4%	26%[46.1 µM]	3%	nt	2%	nt
O=C1Nc2ccccc2C(=O)N2[C@H](c3ccc(F)cc3)[C@@H]3C(=O)N(Cc4ccccc4)C(=O)[C@@H]3[C@H]12	-10%	nt	-4%	nt	1%	nt	6%	nt
O=C1C(=O)N(c2ccc(O)cc2)C(c2ccccc2[N+](=O)[O-])/C1=C(\O)c1ccccc1 (centres undefined)	9%	14%	-5%	20%[46.1 µM]	1%	nt	-1%	nt
